Screening results: PubChem, several laboratories
UCH37 DUB inh = blocks the human deubiquitinase UCH37 | inhibition, % (no concentration beside the values) | AID 588478 | hit rate 0.33% among 330,000 | purified proteasome/UCH37, Ub-AMC cleavage fluorescence | Q9Y5K5;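 active = mean of two replicates above 20%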;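 note: 0% = compound-free wells with enzyme and 100% = wells lacking proteasome; stock transfer was 100 nL into about 20 µL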
Target sequence (Q9Y5K5 whole entry, looked up): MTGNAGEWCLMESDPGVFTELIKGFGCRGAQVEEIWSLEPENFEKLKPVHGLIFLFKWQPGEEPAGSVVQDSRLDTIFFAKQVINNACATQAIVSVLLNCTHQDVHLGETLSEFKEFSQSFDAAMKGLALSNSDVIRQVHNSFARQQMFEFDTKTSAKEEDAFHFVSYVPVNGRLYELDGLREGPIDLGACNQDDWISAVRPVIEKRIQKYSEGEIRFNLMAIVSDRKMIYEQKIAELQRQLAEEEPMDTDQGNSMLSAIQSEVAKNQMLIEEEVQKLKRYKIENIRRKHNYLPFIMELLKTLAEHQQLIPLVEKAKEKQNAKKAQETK
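Reagent: Ub-AMC substrate; assay system: Proteasome-associated human UCH37 deubiquitinase; controls: no-proteasome and no-compound wells; read-out: % inhibition of Ub-AMC cleavage fluorescence; timing: 30 min preincubation with enzyme, 25 min cleavage at room temperature; signal: AMC fluorescence from Ub-AMC cleavage, excitation 355 nm, emission 460 nm; buffer or medium: Tris-HCl pH 7.4 plus ovalbumin, ATP-MgCl2, DTT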
FGF22 binding = shifts melting point of recombinant human FGF22. calls only at 9.99 µM. AID 651658. hit rate 1.5% among 340,000. recombinant FGF22 thermal shift, SYPRO orange fluorescence; percent of sucrose octasulfate shift, DMSO zero;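 active = melting point raised past a set limit in the mean and every replicate; inconclusive = no clear call; three in four hits are not shown here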
Target sequence (Q9HCT0 whole entry, looked up): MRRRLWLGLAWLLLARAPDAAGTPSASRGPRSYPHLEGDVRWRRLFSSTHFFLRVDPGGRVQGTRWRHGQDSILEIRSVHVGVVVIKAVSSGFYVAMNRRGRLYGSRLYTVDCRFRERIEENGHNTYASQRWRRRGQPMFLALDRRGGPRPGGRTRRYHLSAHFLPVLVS
MLL AF4-AF9 inh = MLL-AF4/AF9 protein interaction inhibition | AlphaScreen, biotin-AF4 peptide binding to FLAG-AF9 | inhibition, % at 10 µM | hit rate 0.47% among 350,000 | AID 651704;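 active = every replicate reaching a set inhibition limit, whatever the replicate mean, cut at about 25% in these data; inconclusive = mean inhibition reaches that limit but some replicates miss it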;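 note: 0% = plate neutral control median and 100% = total signal loss; the record names both 10 and 1 µM as test concentration; the first replicate is given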
Target sequence (P42568 whole entry, looked up): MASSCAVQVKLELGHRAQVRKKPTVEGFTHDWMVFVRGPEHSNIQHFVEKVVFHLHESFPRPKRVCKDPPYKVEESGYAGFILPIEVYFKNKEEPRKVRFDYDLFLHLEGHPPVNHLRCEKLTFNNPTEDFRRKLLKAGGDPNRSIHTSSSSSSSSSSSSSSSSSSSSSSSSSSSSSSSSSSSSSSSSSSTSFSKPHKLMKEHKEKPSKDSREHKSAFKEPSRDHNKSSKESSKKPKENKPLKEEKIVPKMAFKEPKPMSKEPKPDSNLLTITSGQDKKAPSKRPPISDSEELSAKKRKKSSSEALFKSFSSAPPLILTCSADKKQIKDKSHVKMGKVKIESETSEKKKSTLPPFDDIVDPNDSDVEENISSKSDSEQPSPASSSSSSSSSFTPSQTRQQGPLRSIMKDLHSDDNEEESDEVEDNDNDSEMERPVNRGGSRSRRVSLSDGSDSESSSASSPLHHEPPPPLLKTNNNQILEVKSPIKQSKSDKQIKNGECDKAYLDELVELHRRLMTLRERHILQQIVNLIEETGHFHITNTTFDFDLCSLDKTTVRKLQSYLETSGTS
Vif TR-FRET = inhibitors of Vif binding to APOBEC3G peptide, primary screen, biochemical, TR-FRET, GST-Vif 1-94, biotin-A3G peptide, dose response retest (AID 1117319) | one-dose inhibition, %; IC50 in µM for titrated hits | TR-FRET GST-Vif / biotin-A3G peptide binding; higher % means a stronger effect; test concentration not given here; strong numbers were not always called active | hit rate 0.57% among 260,000;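 active = above the screen mean plus three standard deviations and confirmed in dose response; inconclusive = results disagree or hit not tested in dose response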;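 note: Vif residues 1-94 fused to GST binding biotinylated APOBEC3G peptide 110-148; 0% = full assay without inhibitor and 100% = GST in place of GST-Vif; retest series ran down from 100 µM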
RanGTP-Imp inh = inhibitors of RanGTP-importin-beta interaction, primary screen, biochemical, FRET, CFP-Ran, YFP-importin-beta, homogeneous. cell-free CFP-Ran/YFP-importin-beta FRET ratio. AID 2216. hit rate 1.1% among 300,000. inhibition, % (concentration not given with the values);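 active = most replicates above 15%; inconclusive = exactly half above 15%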;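 note: 0% = DMSO wells and 100% = Ran loaded with GDP instead of GTP; wells of about 40 µL received 100 nL stock; the first replicate is given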
E coli growth = inhibitors of Escherichia coli growth; AID 1053175; OD600 absorbance (no concentration beside the values); OD600, 23 h; hits give low values; hit rate 0.21% among 330,000;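 active = OD600 absorbance below the run mean of sample wells minus 3.6 SD, in any replicate, cut at about 0.56 in these data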;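 note: stock transfer was 300 nL into about 60 µL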
HNF4A DNA FP = change in binding of human HNF4 alpha to DNA; HNF4a-FITC DNA binding, fluorescence polarization, 1 h; activity change, % at 10 µM; hit rate 0.3% among 360,000; AID 1224865; in the data active = activity change above about 30%, passing the limit was not always enough;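 note: controls were the assay level and a saturating level of protein; the project sought stronger binding though the title names inhibitors; some compounds called inactive have numbers as strong as hits; positive values seem to mean higher polarization but the record does not say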
Active calls of the source: *; i = inactive; ? = inconclusive; . = not tested or not shown; & = joins results of further samples. This is a subset. The share of hits here may be higher or lower than overall.

UCH37 DUB inh	Vif TR-FRET	RanGTP-Imp inh	MLL AF4-AF9 inh	HNF4A DNA FP	FGF22 binding	E coli growth	Compound
.	.	-0.2	-2.0	2.1	i	.	OCC(O)/C=N/Nc1nc2ccccc2s1 (stereo unspecified)
.	.	.	-0.1	-1.8	i	.	O=C(NC(c1ccccc1)c1ccc2ccccc2n1)C1CCN(CCOc2ccc(Cl)cc2Cl)CC1 (stereo unspecified)
5.3	.	-0.8	1.3	0.5	i	0.675	CC(C)(C)NC(=O)CN(C(=O)C(=O)Nc1ccc2c(c1)OCCO2)C1CC1
.	-2.8%	.	-0.5	0.8	i	.	C[C@H](CO)N1C[C@H](C)[C@@H](CN(C)C(=O)NC2CCCC2)Oc2cc(Br)ccc2S1(=O)=O
2.1	1.1%	-2.2	0.0	-1.2	i	0.631	COc1ccc(NC(=O)CN2CCCN(S(=O)(=O)c3ccc(F)cc3)CC2)cc1
10.6	1.1%	0.4	-2.5	-2.7	i	0.61	CCc1ccc(-n2c(=S)sc3c(=O)n(-c4ccccc4C)c(SCC(=O)O)nc32)cc1
.	10.0%	3.3	.	-8.4	.	.	FC(F)(F)c1nc2ccccc2nc1N/N=C\c1ccccc1
1.7	-6.1%	-1.7	0.5&1.3	1.8	i	.	CCO[C@H]1OC(C(=O)N2CCN(C)CC2)=C[C@@H](c2ccc(C(F)(F)F)cc2)[C@@H]1CCCO
-0.1	1.4%	1.8	1.9	3.1	i	0.714	NS(=O)(=O)c1ccc(NC(=O)CN2C(=O)C3C4C=CC(C4)C3C2=O)cc1 (stereo unspecified)
-18.0	-2.7%	1.0	.	-1.7	.	0.692	CCOC(=O)c1c(C)nc2c(C#N)cnn2c1C
4.7	-0.8%	5.3	-0.8	-3.7	i	0.642	CC1CCC(NC(=O)COC(=O)c2n[nH]c(=O)c3ccccc23)CC1 (stereo unspecified)
1.4	19.3%	2.2	.	0.2	.	0.783	CCOC(=O)CCNCC1COc2ccccc2O1 (stereo unspecified)
-1.5	8.2%	-1.1	.	0.1	.	0.695	Cc1cc(Oc2ccccc2)nc(SCC(=O)Nc2ccccc2)n1
.	.	3.3	-3.6	-2.6	i	.	COc1ccccc1/C=C/C=N/n1c(-c2n[nH]c3c2CCC3)n[nH]c1=S
2.3	0.4%	-2.9	0.0	-2.9	.	0.714	Cc1n[nH]c(C)c1Sc1ccccc1N
2.7	0.8%	-2.8	.	1.3	.	0.721	CN(C(=O)COC(=O)c1c[nH]c(=O)[nH]c1=O)C1CCCCC1
3.7	.	1.2	-0.3	-2.2	i	0.691	CCOC(=O)c1sc(N2C(=O)C(O)=C(C(=O)c3ccco3)C2c2ccco2)nc1C (stereo unspecified)
2.7	?	4.5	.	0.9	.	0.683	Cc1occc1C(=O)Nc1nccs1
6.4	?	1.4	5.8	-1.2	i	0.643	N#C/C(=C\c1c(N2CCCCC2)nc2ccccn2c1=O)C(=O)NCc1ccco1
4.4	30.9%	0.2	-0.9	0.9	i	0.685	CC(C)c1ccc(CN(C(=O)/C=C/c2ccco2)C2CCS(=O)(=O)C2)cc1 (stereo unspecified)

Record cards (already shown).
Cc1cc(Oc2ccccc2)nc(SCC(=O)Nc2ccccc2)n1 across the screens: UCH37 DUB inh = -1.5; Vif TR-FRET = 8.2%; RanGTP-Imp inh = -1.1; MLL AF4-AF9 inh = .; HNF4A DNA FP = 0.1; FGF22 binding = .; E coli growth = 0.695
CC(C)c1ccc(CN(C(=O)/C=C/c2ccco2)C2CCS(=O)(=O)C2)cc1 (stereo unspecified) across the screens: UCH37 DUB inh = 4.4; Vif TR-FRET = 30.9%; RanGTP-Imp inh = 0.2; MLL AF4-AF9 inh = -0.9; HNF4A DNA FP = 0.9; FGF22 binding = i; E coli growth = 0.685

(more compounds)
UCH37 DUB inh	Vif TR-FRET	RanGTP-Imp inh	MLL AF4-AF9 inh	HNF4A DNA FP	FGF22 binding	E coli growth	Compound
-1.0	-9.1%	.	2.5	-6.0	i	0.689	CC(C)N(Cc1ccccc1)C(=O)CN1C(=O)NC2(CCCCCC2)C1=O
2.4	21.8%	.	.	2.2	.	0.767	CCC1CCCCN1S(=O)(=O)c1ccc(C(=O)Nc2nnc(-c3cccs3)o2)cc1 (stereo unspecified)
1.4	.	3.2	0.4	1.0	i	0.737	O=C(Nc1cccc(F)c1)N1CCN(C(=O)c2ccco2)CC1
1.2	-7.2%	-0.3	-16.7	2.4	i	0.664	COC(=O)C1=C(C)NC(=O)NC1c1c(O)ccc2ccccc12 (stereo unspecified)
3.7	-0.7%	1.3	-9.1	5.5	i	0.736	COc1ccc(C)c2sc(=NC(=O)C(C)C)n(C)c12
3.2	.	0.1	2.3	-11.2	i	0.679	Cc1ccc2nc(/C(C#N)=C\c3ccc(Oc4ccc(C(F)(F)F)cc4[N+](=O)[O-])cc3)[nH]c2c1
1.0	.	2.0	-2.5	1.9	i	0.698	O=C1CCCN2N=C(SCC(=O)Nc3ccc(F)cc3F)SC2=N1
-1.5	16.0%	0.8	-0.9	-1.2	i	0.708	OCC1(Cc2ccccc2C(F)(F)F)CCN(Cc2ccc3c(c2)CCO3)CC1
4.0	17.8%	7.2	-17.5	3.6	i	0.737	CN(CC(=O)N1CCCCC1)S(=O)(=O)c1cccc2cccnc12
-0.7	-3.7%	.	-14.7	-0.3	i	0.622	Cc1cc(C(=O)NNC(=O)c2cccs2)c(C)o1
1.9	0.0%	?	-0.9	-2.2	i	0.705	O=Cc1c(NCc2ccc(Cl)cc2)c2ccccc2[nH]c1=O
1.7	1.3%	-0.1	.	4.6	.	0.68	NC(=O)CC1(CC(=O)O)CCCCC1
.	.	.	-1.1	-1.7	i	.	CCc1nc2c(OCCn3cccc3)cccn2c1N(C)C(=O)c1ccc(OC)cc1
.	.	.	2.1	0.0	i	.	CC(=O)OC[C@@H]1CN(Cc2ccccc2)C[C@H](n2cnc3c(NCc4ccc(F)cc4)ncnc32)O1
3.5	-6.6%	-0.1	-2.6	-0.5	i	0.651	O=c1[nH]c(SCc2cccc(F)c2)nc2ccccc12
2.0	-2.1%	0.0	-4.5	1.4	i	0.671	Cc1cc(NS(=O)(=O)c2c(C)[nH]c(=O)[nH]c2=O)ccc1Br
2.6	3.1%	-3.2	.	1.8	.	0.648	COc1ccc(CCNC(=O)c2nnn(-c3ccccc3OC)c2N)cc1OC
.	.	-2.3	1.6	-0.5	i	.	CC/C(C)=N/NC(=O)c1[nH]c2ccc(C)cc2c1-c1ccccc1
4.0	?	3.8	2.5	-0.5	i	0.666	CN1CCN(c2nc3c(c(=O)n(C)c(=O)n3C)n2Cc2cccc(Br)c2)CC1
-0.4	-6.1%	0.7	-3.9	-1.0	i	0.626	Nn1c(SCC(=O)NNC(=O)c2ccccc2)nnc1-c1ccccc1F
1.1	20.2%	?	0.6	2.9	i	0.72	O=C(NCC(c1ccco1)N1CCN(c2ccc(F)cc2)CC1)C(=O)NC1CCCC1 (stereo unspecified)
3.4	-93.4%	5.2	-0.2	-4.2	i	0.688	O=C(Nc1nc2ccc(S(=O)(=O)N3CCCC3)cc2s1)c1ccco1
.	-0.9%	7.7	-42.2	0.4	i	.	Cc1occc1C(=O)N/N=C/c1cccnc1
-0.6	.	-6.4	-3.0	-1.1	i	0.602	O=C(NCCNC(=O)c1ccco1)c1ccco1
2.8	12.8%	-4.0	.	-2.0	.	0.652	CCOc1cc(C(=O)NC(C)COC)cc(OCC)c1OCC (stereo unspecified)
-2.2	3.0%	-1.9	.	1.8	.	0.703	Cc1cccc(OCC(=O)NNC(=O)c2cc3ccccc3oc2=O)c1
.	-0.9%	.	0.3&-3.9&-8.2	2.1	i	.	COc1ccc(-c2cnc3c(c2)C(=O)N([C@H](C)CO)C[C@@H](C)[C@@H](CN(C)C(=O)NC2CCCC2)O3)cc1
0.4	14.0%	-4.7	.	-0.7	.	0.76	COC(=O)C(C(=O)Nc1ccccc1C)C1CCCC1 (stereo unspecified)
-7.6	-3.3%	0.8	.	3.9	.	0.779	CCCCN1CCc2c([nH]c3ccccc23)C1=O
3.1	4.5%	1.0	1.9	6.8	i	0.634	Clc1cccc(Cl)c1Cn1cc(Br)cn1
1.6	-2.1%	?	2.9	0.3	i	0.699	C=CCN(C(=O)CSC1=NC(=O)CN1C(C)=O)c1nc(C)c(-c2ccccc2)s1
.	29.4%	0.0	-1.8	3.2	i	.	COc1ccc(OC)c(/C=N/NC(=O)c2cc[n+](Cc3ccccc3)cc2)c1
.	.	?	-7.7	-0.3	i	.	O=C(Cn1ccc([N+](=O)[O-])n1)Nc1nccs1
4.2	.	-1.9	1.4	-0.2	i	0.731	CCN(CC)c1ccc(NC(=O)c2cccc(C)c2)cc1S(=O)(=O)Nc1ccccc1OC
i	.	5.8	-2.6	1.4	i	0.603	CC1CN(C(=O)c2cc3c(=O)n4ccccc4nc3n2C)CC(C)O1 (stereo unspecified)
2.9	-8.6%	.	-0.9	-0.2	i	0.684	O=C(CCCNC(=O)c1ccc(Cl)cc1)Nc1nccs1
.	4.7%	.	-1.9	-8.8	i	.	CCOc1cc(/C=N/Nc2ccc(S(=O)(=O)Nc3ccccc3C(=O)O)cc2[N+](=O)[O-])cc(Cl)c1O
0.4	2.6%	-1.0	-0.3	3.5	i	0.683	CCOc1ccc(NC(=O)NN2C(C)CCCC2C)cc1 (stereo unspecified)
3.3	.	7.7	4.3	5.2	i	0.663	COc1ccc(CN2CCN(C(=O)CCC(=O)Nc3nnc(C4CCCCC4)s3)CC2)cc1F
4.4	19.7%	-1.2	3.3	-2.8	.	0.735	Cc1cccc(Sc2ccc([N+](=O)[O-])cc2[N+](=O)[O-])n1
.	32.4%	1.3	-2.5	-2.7	i	.	Cc1ccc(OCCOc2ccc(Br)cc2/C=N\NC(N)=O)cc1
2.6	.	1.1	-7.5	-3.0	i	0.677	O=C(CCS(=O)(=O)c1ccc(F)cc1)Nc1nc(-c2ccncc2)cs1
-1.7	-0.7%	.	.	-2.6	.	0.761	COc1ccc(CC(=O)Nc2ccc(S(=O)(=O)Nc3nc(C)cc(C)n3)cc2)cc1
-0.4	-9.9%	.	-0.3	0.9	i	0.707	O=C(Cn1[nH]c(=O)c2ccccc2c1=O)NCC1COc2ccccc2O1 (stereo unspecified)
4.4	?	-34.6	.	135.5	.	0.776	Cc1ccc2nc(/C(C#N)=C\c3ccc(N4CCOCC4)o3)[nH]c2c1
4.1	.	-0.7	.	-3.0	.	0.692	COc1ccc(CN(C)CC(=O)Nc2cc(OC)c([N+](=O)[O-])cc2C)c(OC)c1
2.0	.	0.7	1.3	-4.7	i	0.726	O=C(C(=O)N1CCN(c2ccccc2)CC1)c1cn(CC(=O)N2CCCCCC2)c2ccccc12
2.8	-23.3%	.	-3.9	-2.0	i	0.716	CCc1ccccc1NC(=O)CN(C)C(=O)c1cc(C2CC2)nc2c1cnn2C(C)C
5.8	2.5%	10.3	.	-3.2	.	0.712	Cc1ccc(SCCNC(=O)c2ccccc2)cc1
-4.5	-109.5%	10.7	2.7	3.1	i	0.692	CCOC(=O)CC(=O)CSc1nc(N)c(C#N)c(-c2ccc(Cl)cc2)c1C#N

Other structures follow:
UCH37 DUB inh	Vif TR-FRET	RanGTP-Imp inh	MLL AF4-AF9 inh	HNF4A DNA FP	FGF22 binding	E coli growth	Compound
30.2*	.	-0.3	.	176.0	.	0.689	CCOC(=O)/C(=C/C=C1\Sc2ccccc2N1CC)C(C)=O
-215.8	0.7%	-0.6	-10.8	-0.4	i	0.712	C=CCn1c(=NC(=O)c2ccc(S(=O)(=O)N3CCc4ccccc4C3)cc2)sc2cc(S(N)(=O)=O)ccc21
4.1	.	-0.4	-3.7	-0.8	i	0.708	C=CCCN(C(C(=O)OC)C(C)C)S(=O)(=O)c1ccccc1Br (stereo unspecified)
.	.	.	-24.5	-1.0	i	.	C/C(=N\Nc1ccccc1)c1cccs1
